Vif TR-FRET = inhibitors of Vif binding to APOBEC3G peptide, primary screen, biochemical, TR-FRET, GST-Vif 1-94, biotin-A3G peptide, dose response retest (AID 1117319); 0.57% of 260,000 active; inhibition, %, or IC50 in µM where a hit was titrated; TR-FRET GST-Vif / biotin-A3G peptide binding; higher % means a stronger effect; test concentration not given here; strong numbers were not always called active;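 active = above the screen mean plus three standard deviations and confirmed in dose response; inconclusive = results disagree or hit not tested in dose response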;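 also: Vif residues 1-94 fused to GST binding biotinylated APOBEC3G peptide 110-148; 0% = full assay without inhibitor and 100% = GST in place of GST-Vif; retest series ran down from 100 µM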
rRNA inh HTS = inhibitors of bacterial rRNA selective over humanized ribosomes. E. coli WT GFP vs humanized-ribosome RFP mutants, fluorescence, 24 h; active compounds read low; DMSO median 0, no signal -100. GFP signal change (wild-type ribosome), % (concentration not given with the values). 1.6% of 350,000 active;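 active = significant combined selectivity score with lowered wild-type GFP, culture density cut under 30%, mutant RFP and density less affected; inactive = any of these conditions unmet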; also: one replicate is shown; some compounds called inactive have numbers as strong as hits
ALR inh = human ALR oxidase inhibition via reduced H2O2. P55789. purified ALR, DTT oxidation, H2O2 HRP-luminol luminescence. inhibition, % (concentration not given with the values). 3.8% of 290,000 active. AID 485317;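 active = mean and each replicate at 75% or more; inconclusive = only one of the two met; inactive = neither met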;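 also: stock transfer was 7.5 nL into about 7.5 µL; 0% = neutral wells and 100% = wells with inactivated enzyme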
Target sequence (P55789 whole entry, looked up): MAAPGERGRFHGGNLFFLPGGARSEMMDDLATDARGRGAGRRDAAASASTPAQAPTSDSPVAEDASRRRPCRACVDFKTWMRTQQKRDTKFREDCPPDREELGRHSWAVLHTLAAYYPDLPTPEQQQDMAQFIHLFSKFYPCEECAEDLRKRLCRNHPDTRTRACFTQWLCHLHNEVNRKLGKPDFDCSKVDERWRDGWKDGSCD
AF4-AF9 inh = inhibitors of human MLL-AF4/AF9 interaction. P42568. AlphaScreen, biotin-AF4 peptide binding to FLAG-AF9. inhibition, % at 10 µM. 0.47% of 350,000 active;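 active = every replicate reaching a set inhibition limit, whatever the replicate mean, cut at about 25% in these data; inconclusive = mean inhibition reaches that limit but some replicates miss it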;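 also: 0% = plate neutral control median and 100% = total signal loss; the record names both 10 and 1 µM as test concentration; the first replicate is given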
Target sequence (P42568 whole entry, looked up): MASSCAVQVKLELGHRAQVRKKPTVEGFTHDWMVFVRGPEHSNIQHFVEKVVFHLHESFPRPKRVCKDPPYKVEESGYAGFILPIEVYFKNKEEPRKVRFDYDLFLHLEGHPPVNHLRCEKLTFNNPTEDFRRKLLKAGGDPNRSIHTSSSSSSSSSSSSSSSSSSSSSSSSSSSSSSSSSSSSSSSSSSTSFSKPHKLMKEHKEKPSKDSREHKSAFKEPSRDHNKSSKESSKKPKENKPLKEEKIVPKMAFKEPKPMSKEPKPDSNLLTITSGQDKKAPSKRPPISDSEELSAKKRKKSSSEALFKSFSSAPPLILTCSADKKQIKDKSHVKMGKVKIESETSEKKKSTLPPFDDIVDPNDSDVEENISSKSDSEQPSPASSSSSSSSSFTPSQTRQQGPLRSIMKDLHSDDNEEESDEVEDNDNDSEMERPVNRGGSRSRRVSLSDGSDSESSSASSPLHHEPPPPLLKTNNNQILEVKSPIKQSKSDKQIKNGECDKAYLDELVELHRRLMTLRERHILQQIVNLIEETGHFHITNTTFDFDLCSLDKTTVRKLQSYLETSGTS
FGF22 binding = binders of recombinant human FGF22 by thermal shift; calls only at 9.99 µM; 1.5% of 340,000 active; SYPRO orange fluorescence; percent of sucrose octasulfate shift, DMSO zero; AID 651658;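 active = melting point raised past a set limit in the mean and every replicate; inconclusive = no clear call; three in four hits are not shown here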
Target sequence (Q9HCT0 whole entry, looked up): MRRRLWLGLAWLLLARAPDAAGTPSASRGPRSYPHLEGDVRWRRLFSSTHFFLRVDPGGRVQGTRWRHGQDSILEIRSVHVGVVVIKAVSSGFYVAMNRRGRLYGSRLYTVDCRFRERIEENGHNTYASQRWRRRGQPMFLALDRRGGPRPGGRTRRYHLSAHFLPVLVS
Ecoli growth = E. coli growth inhibition. Escherichia coli growth, OD600, 23 h; active compounds read low. OD600 absorbance (concentration not given with the values). 0.21% of 330,000 active. AID 1053175;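 active = OD600 absorbance below the run mean of sample wells minus 3.6 SD, in any replicate, cut at about 0.56 in these data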;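 also: stock transfer was 300 nL into about 60 µL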
HNF4A DNA FP = change in binding of human HNF4 alpha to DNA | 0.3% of 360,000 active | P41235 | HNF4a-FITC DNA binding, fluorescence polarization, 1 h | activity change, % at 10 µM; in the data active = activity change above about 30%, passing the limit was not always enough;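 also: controls were the assay level and a saturating level of protein; the project sought stronger binding though the title names inhibitors; some compounds called inactive have numbers as strong as hits; positive values seem to mean higher polarization but the record does not say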
rRNA inh HTS OD600 = second read-out of rRNA inh HTS, no call of its own (marks repeat the call); OD600 change, %; measured here: OD600 growth;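 optical density of the mix in the first replicate; 0 = DMSO median and -100 = no signal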
rRNA inh HTS RFP = second read-out of rRNA inh HTS, no call of its own (marks repeat the call); RFP signal change, %; measured here: RFP humanized mutant strains;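 first replicate; 0 = DMSO median and -100 = no signal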
Numbers without * were called inactive; i = inactive; ? = inconclusive; nt = no result given; & = joins results of further samples. These rows are one share of the data; rates above refer to the full screens.

SMILES	Vif TR-FRET	rRNA inh HTS	rRNA inh HTS OD600	rRNA inh HTS RFP	ALR inh	AF4-AF9 inh	FGF22 binding	Ecoli growth	HNF4A DNA FP
CCOC(=O)C1CCN(C=C2C(=O)N(C)C(=S)N(C)C2=O)CC1	-3%	nt	nt	nt	6	nt	nt	nt	0.0
c1cncc(CNC2=NCCCCC2)c1	4%	nt	nt	nt	nt	nt	nt	0.73	2.3
O=C1NC2C(=CC(O)C(O)C2O)c2cc3c(cc21)OCO3 (stereo unspecified)	-1%	4	12	2.0	nt	-0.8	i	nt	3.2
CC(NC(C)(C)C)C(=O)c1cccc(Cl)c1 (stereo unspecified)	nt	-1&11	13&11	-0.8&3.2	-14&0	-31	i	0.69&0.68	5.3
CCC(c1nnnn1-c1ccc(OC)cc1)N1CCC2(CC1)C(=O)NCN2c1ccccc1 (stereo unspecified)	nt	-23	-19	5.2	nt	5.5	i	nt	-1.3
O=C(Nc1ccc(Cl)cc1C(=O)c1ccccc1)c1ccc(Br)o1	-3%	nt	nt	nt	0	nt	nt	0.74	-2.4
COc1ccc2c(c1)NP(=S)(c1ccccc1)N2C (stereo unspecified)	-1%	6	6	6.5	nt	10	nt	0.67	4.8
C/C=C(\C)C(=O)N[C@@H](c1ccccc1)[C@@H](O)C(=O)O[C@H]1C[C@@]2(O)[C@@H](OC(=O)c3ccccc3)C3[C@](C)(C(=O)[C@H](OC(C)=O)C(=C1C)C2(C)C)[C@H](O)C[C@H]1OC[C@@]31OC(C)=O (stereo partly specified)	nt	nt	nt	nt	-7	1.2	i	0.75	-2.1
COc1cccc(-n2c(O)c(C=NCCN3CCOCC3)c(=O)[nH]c2=O)c1	-2%	nt	nt	nt	-4	nt	nt	0.67	0.9
CN=C(SCC(=O)c1cccc(Cl)c1)c1c(O)n(C)c(=O)n(C)c1=O	-6%	-7	-10	0.9	12	-2.1	i	0.7	2.0
CC(C)OS(C)(=O)=O	nt	3	2	-0.4	-13	nt	i	0.66	3.1
CC(=O)C1C2c3ccccc3OC1(C)N=c1s/c(=C/c3cn(C)nc3C)c(=O)n12 (stereo unspecified)	5%	nt	nt	nt	-4	nt	nt	nt	-7.1
COc1ccc(C#Cc2ccc([C@H]3[C@@H](CO)N4CCCCN(C(=O)Cc5ccccc5)C[C@@H]34)cc2)cc1	nt	6	18	5.7	nt	3.9	i	nt	nt
Cc1ccc(S(=O)(=O)N2CCN(C(=O)COC(=O)Cc3ccccc3)CC2)c(C)c1	-5%	-4	-9	3.1	-5	-1.1	i	0.7	-2.5
C[C@]12CC[C@@H](O)CC1=CC(=O)C1C2CC[C@]2(C)C(=O)[C@H](O)CC12 (stereo partly specified)	nt	14	21	4.1	nt	-8.9	i	nt	0.7
COC(=O)C1=C(c2cccc(OC)c2OC)C[C@@H]2CC[C@H]1N2C(=O)N1CCOCC1	nt	8	16	-0.3	-9	2.9	i	nt	-0.8
C=CCn1c(O)c(/C=N/N2CCCCC2c2cccnc2)c(=O)[nH]c1=S (stereo unspecified)	nt	nt	nt	nt	21	nt	nt	0.7	1.3
CCCCC1(CCCC)C(=O)NC(=Nc2cccc(C)c2)NC1=O	25%	nt	nt	nt	-10	nt	nt	0.66	-3.6
Cc1cc(Cl)cc2c1NC(=O)[C@]21[C@@H]2C(=O)N(Cc3ccccc3)C(=O)[C@@H]2[C@@H]2CCCN21	38µM*	nt	nt	nt	-7	9.7	nt	0.73	1.4
CCCCCN1C(=O)c2ccccc2[C@@]2(C(=O)OCC)Cc3cc(OC)ccc3[C@@H]12	nt	-60	-77	-19	nt	-5.3	i	nt	1.4
CCc1cc(=O)oc2cc(OCC(=O)N3C[C@H]4C[C@@H](C3)c3cccc(=O)n3C4)ccc12	nt	1	8	-3.6	nt	-2.3	i	0.71	3.1
Cn1c(O)c(C(=Nc2ccc(F)cc2)c2ccccc2)c(=O)n(C)c1=O	-4%	2	-1	3.3	-2	-3.9	i	0.66	2.5
COC(=O)C1=C(c2ccccc2)C[C@@H]2CC[C@H]1N2C(=O)NCc1ccc(F)cc1	nt	1	4	1.8	nt	-16	i	nt	1.3
Cc1cc[n+](Cc2ccccc2)cc1	nt	3	-4	-8.1	nt	0.1	i	0.71	0.2
COc1ccc(C[C@H]2NC[C@H](O)[C@H]2OC(C)=O)cc1	nt	nt	nt	nt	-1	-4.0	i	nt	0.5

SMILES	Vif TR-FRET	rRNA inh HTS	rRNA inh HTS OD600	rRNA inh HTS RFP	ALR inh	AF4-AF9 inh	FGF22 binding	Ecoli growth	HNF4A DNA FP
NC1=C([N+](=O)[O-])C(c2ccc3c(c2)OCO3)c2c(c3ccccc3oc2=O)O1 (stereo unspecified)	28%	-29*	-5.1*	4.7*	45	-6.6	i	0.71	nt
CCOC(=O)N(C)c1ccc(C(O)(C(=O)OC)C(F)(F)F)cc1 (stereo unspecified)	-7%	nt	nt	nt	-3	nt	nt	0.72	1.1
C[C@H](NC(=O)N1C[C@H]2C[C@@H](C1)c1cccc(=O)n1C2)C(=O)Nc1cccc(F)c1	nt	nt	nt	nt	-9	-1.3	i	0.65	1.0
Cc1ccc(C)c(NC(=O)CCNC(=O)N2C[C@H]3C[C@@H](C2)c2cccc(=O)n2C3)c1	nt	0	9	-12	-1	-5.1	i	0.79	4.5
CN(C)CCNC(=O)c1cccn(Cc2cccc(C(F)(F)F)c2)c1=O	-12%	20	16	2.1	-9	-1.6	i	0.65	2.5
COc1ccc(NC(=O)c2cn(CCC#N)nc2-c2cccc([N+](=O)[O-])c2)cc1	?	3	-2	-2.9	2	3.0	i	0.66	0.8
COc1ccc(S(=O)(=O)N2Cc3cnnn3-c3ccccc3C2C#N)cc1 (stereo unspecified)	-7%	nt	nt	nt	nt	-0.7	i	nt	1.2
COC(=O)[C@@H]1[C@@H](CO)[C@@H]2Cn3c(ccc(C4=CCCC4)c3=O)[C@H]1N2Cc1ccccn1	nt	1	5	-0.5	nt	0.8	i	nt	nt
CC(=O)c1c(C)n(CC2CCCO2)c2ccc(O)cc12 (stereo unspecified)	32%	8	3	5.8	5	6.1	i	0.71	3.0
C=CCc1ccc(OC)cc1	nt	-6	7	-2.9	nt	-2.0	i	0.72	-1.9
COc1ccccc1-n1c(O)c(C=NC2CC2)c(=O)[nH]c1=O	24%	6	8	-1.9	nt	nt	nt	0.71	21
CC(C)CN1CCN(Cc2ccc(C(F)(F)F)cc2)CC1CCO (stereo unspecified)	-3%	9	-4	-1.3	2	-40	i	0.68	0.8
CN1C2CCC1C(C(=O)O)C(OC(=O)c1ccccc1)C2 (stereo unspecified)	nt	5	9	1.6	nt	nt	i	0.77	8.3
Cc1cc(=O)oc2cc(OCC(=O)N3CCN(C(C)c4ccccc4)CC3)c(Cl)cc12 (stereo unspecified)	0%	-2	-1	5.1	9	4.4	i	0.64	3.0
COc1ccc(-c2ccc([C@H]3[C@H](CO)N4CCCCN(C(=O)Cc5ccncc5)C[C@@H]34)cc2)cc1	nt	-6	-2	3.2	nt	-0.8	i	nt	nt
COc1cccc(-n2c(/C=C/c3ccccn3)nc3ccccc3c2=O)c1	4%	4	5	1.8	0	0.4	i	0.71	-3.5
Cn1cc(C(=O)OCC(=O)N2CCCC2)c2ccccc21	-5%	12	14	1.0	0	0.6	i	0.68	2.7
CC1CCCCN1CC(O)c1c[nH]c2ccccc12 (stereo unspecified)	-6%	10	20	-0.3	0	-3.2	i	0.7	3.8
O=C(c1cccc(Cl)c1)C1CCCN(Cc2ccon2)C1 (stereo unspecified)	-2%	14	10	-2.2	-9	0.1	i	0.66	-2.9
O=C(COc1ccc2ccccc2c1)N1CCN(C2CCN(Cc3ccccc3)CC2)CC1	-12%&-5%	nt	nt	nt	-58	nt	nt	0.72	2.6
C/C(=N\NC(=O)c1ccccc1)c1c(O)n(Cc2ccccc2)c(=O)[nH]c1=O	11%	15	2	1.6	50	1.6	i	0.68	4.2
O=C1NC(=O)C(CCc2ccncc2)(CCc2ccncc2)C(=O)N1CCc1ccccc1	9%	-26	-29	-3.5	-5	-0.9	i	0.7	2.2
C[N+]1(C)C2CC(OC(=O)C(CO)c3ccccc3)CC1C1OC12 (stereo unspecified)	nt	nt	nt	nt	-4	0.6	i	0.69&0.66&0.64	3.0
COc1ccc(N2C(=O)NC(=O)/C(=C\c3ccccc3[N+](=O)[O-])C2=O)cc1	nt	7	4	-1.8	nt	-3.9	i	0.72	-1.1
FC(F)(F)c1ccc2c(c1)nnn2C1CCN(Cc2nnnn2Cc2ccccc2)CC1	12%	nt	nt	nt	-24	nt	nt	0.69	0.6

SMILES	Vif TR-FRET	rRNA inh HTS	rRNA inh HTS OD600	rRNA inh HTS RFP	ALR inh	AF4-AF9 inh	FGF22 binding	Ecoli growth	HNF4A DNA FP
C[C@]12CCC3C(CC[C@H]4C[C@@H](O)CC[C@]34C)C1=CC[C@@H]2O (stereo partly specified)	nt	-13	-34	-6.8	nt	-5.3	i	nt	2.2
CCC1(c2cccc(O)c2)CCCCN(C)C1 (stereo unspecified)	nt	nt	nt	nt	2	15	i	0.69	0.9
CCOC(=O)c1c(C)[nH]c(C)c1C(=O)C(Cc1ccccc1)N(C)C (stereo unspecified)	2%	5	8	-1.2	nt	1.4	i	0.66	-0.7
CCn1cc(/C=c2/sc3n(c2=O)C2c4ccccc4OC(C)(N=3)C2C(=O)OC)c(C)n1 (stereo unspecified)	nt	2	-7	-3.6	-15	2.1	i	nt	-0.8
Cc1ccc2[nH]c(=S)n(-c3cccnc3)c(=O)c2c1	-3%	17	3	-0.3	-3	-2.1	i	0.66	2.6
Cc1ccc(C(=O)C2CN3CCC2CC3)cc1 (stereo unspecified)	3%	nt	nt	nt	-2	nt	nt	0.69	-2.9
Cc1ccccc1NC(=O)c1cc(-c2ccccc2)n(CCCN2CCOCC2)c1C	-6%	-6	-1	1.0	-9	-3.7	i	0.68	1.6
O=C(c1ccc(CNS(=O)(=O)c2ccc(Br)cc2)cc1)N1CCC2(CC1)OCCO2	1%	-6	0	-4.9	4	-7.7	i	nt	3.2

A draw from above in order of count of non-hydrogen atoms, largest number first.
SMILES	Vif TR-FRET	rRNA inh HTS	rRNA inh HTS OD600	rRNA inh HTS RFP	ALR inh	AF4-AF9 inh	FGF22 binding	Ecoli growth	HNF4A DNA FP
C[C@]12CCC3C(CC[C@H]4C[C@@H](O)CC[C@]34C)C1=CC[C@@H]2O (stereo partly specified)	nt	-13	-34	-6.8	nt	-5.3	i	nt	2.2
Cc1ccc2[nH]c(=S)n(-c3cccnc3)c(=O)c2c1	-3%	17	3	-0.3	-3	-2.1	i	0.66	2.6
Cc1ccc(C(=O)C2CN3CCC2CC3)cc1 (stereo unspecified)	3%	nt	nt	nt	-2	nt	nt	0.69	-2.9

Source: PubChem BioAssay
